Menin MLL FP FL = displaces fluorescein MLL peptide from human menin. Fluorescence polarization, fluorescein-MLL peptide displacement from menin. FP activity change, % at 61.4 µM. 290,000 tested, under 10 active; inconclusive = falling polarisation curve, or a change in total fluorescence; inactive = total fluorescence flat and polarisation flat or rising; no compound was filed as active; the % refers to the polarisation; negative = inhibition;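 note: % of control where 0% means no effect; inhibitors lower the polarisation; unlabelled MLL peptide was the positive control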
TRPV1 potentiator = enhances activation of the human vanilloid receptor TRPV1 | Q8NER1 | TRPV1-expressing cells, Fluo-8 calcium influx, capsaicin EC20 potentiation; host cell line not named in the record; control for the full effect not named in the record | potentiation, % at 8.33 µM | 320,000 compounds, 0.02% hits; active means potentiation above 80%; inconclusive means 30% to 80%; inactive means below 30%; note: 0% is about no effect
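Fluo-8 calcium influx in TRPV1-expressing cells, kinetic read (ex 480/em 520 nm). Compound added and read 3 min for agonist activity, followed by capsaicin at EC20 final and 2 min further read for enhancement.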
gsp antag = gsp mutant antagonism. gsp-mutant cells, cAMP HTRF, 30 min; control for the full effect not named in the record. Potency, µM (titrated, usually from 76.9 µM), without a hit: at the top dose activity change, negative = inhibition, most hits filed as inhibitors. 340,000 compounds, 0.4% hits. AID 624288; active = falling curve of any shape with a large fitted effect; inconclusive = falling curve, mostly with a smaller effect; inactive = flat or rising curve; cell line not stated here;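 note: intracellular cAMP measured with PDE inhibitor Ro 20-1724 present during compound exposure; potency is the fitted concentration of half-maximal effect; % is set by controls: 0 for no effect and ±100 for the full control effect; nearly all actives have a fitted effect of over 65% in size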
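Measurement of cellular cAMP by homogeneous time-resolved fluorescence following a 30 min compound exposure at 37C. The PDE inhibitor […] was present throughout; the assay buffer was DPBS with 0.05% BSA and 0.005% Tween 20.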
ClpP mod = qHTS Assay for Activators of ClpP; ATP-dependent Clp protease proteolytic subunit (Bacillus subtilis (strain 168)), P80244; purified B. subtilis ClpP, FRET peptide cleavage, 20 min; Potency, µM (doses to about 57.5 µM), for the others: at the top dose activity change, negative = active; 340,000 compounds, 1.9% hits; AID 651965, 2013; active = well fitted falling curve with a large enough effect; inconclusive = small, poorly fitted or top-dose-only effect; inactive = no such curve, though single readings can be large or run the other way; note: potency is the fitted concentration of half-maximal effect; the source files actives as falling curves though it sought activators and does not explain the sign; nearly all actives have a fitted effect of over 65% in size; many hits overshoot -100%
Target sequence (P80244 whole entry, looked up): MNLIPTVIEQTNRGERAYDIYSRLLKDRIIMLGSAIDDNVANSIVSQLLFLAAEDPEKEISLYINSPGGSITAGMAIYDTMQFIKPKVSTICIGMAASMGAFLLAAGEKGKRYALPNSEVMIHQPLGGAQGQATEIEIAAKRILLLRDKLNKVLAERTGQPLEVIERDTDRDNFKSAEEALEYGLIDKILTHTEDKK
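Buffer: 100 mM Tris/HCl pH8, 100 mM KCl, 0.05% low protease BSA, 2.5% glycerol, 0.01% Tween-20. ClpP 10 microg/mL final; 20 min RT; delta FRET normalized to ADEP and DMSO controls.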
gsp ag = agonists of gsp mutant (McCune-Albright syndrome) | gsp mutant cells, cAMP HTRF, 30 min; control for the full effect not named in the record | AID 624287 | Potency, µM (top dose mostly 76.9 µM), for the others: at the top dose activation (cAMP increase), hits mostly activators | 340,000 compounds, 0.13% hits; active = well fitted activation curve with a large enough effect; inconclusive = small, poorly fitted or top-dose-only effect, or another doubt; inactive = no such curve, though single readings can be large or run the other way; cell line not stated here;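 note: phosphodiesterase inhibitor Ro 20-1724 added with compounds to block cAMP breakdown; potency is the fitted concentration of half-maximal effect; nearly all actives have a fitted effect of over 60% in size; about a fifth of the inactives were tested at one dose only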
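Cells in DMEM/10% FBS with G418 were pretreated with compounds in DMSO plus […] (300 uM stock) for 30 min at 37C. cAMP was measured by HTRF (cAMP-d2 plus anti-cAMP antibody-K) after 30 min at room temperature.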
Sfp inh = blocks B. subtilis Sfp PPTase activity; AID 1490; Biochemical Sfp PPTase activity, qHTS; Q9F4F7; Potency, µM, without a hit: max response, negative = inhibition, most hits filed as inhibitors; 310,000 compounds, 3.5% hits; active = well fitted inhibition curve with a large enough effect; inconclusive = small, poorly fitted or top-dose-only effect, or another doubt; inactive = no such curve, though single readings can be large or run the other way;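 note: the enzyme is Sfp with the accession as filed and its product quenches rhodamine fluorescence; potency is the fitted concentration of half-maximal effect; 0% = enzyme reaction without inhibitor and -100% = no enzyme wells; top concentration of the series not given in the record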
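Fluorescence-quenching assay: 15 nM Sfp-PPTase preincubated 15 min at room temperature with compound, then 5 uM rhodamine-CoA and 12.5 uM BHQ-2-labelled YbbR peptide added. Fluorescence (ex 525/em 598 nm) read at start and after 30 min; difference gives rate.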
TRPML1 blocker = human mucolipin-1 channel inhibition | activity change, negative = inhibition, % (no concentration beside the values) | 390,000 compounds, 0.02% hits | TRPML1-inducible cells, Ca2+ dye fluorescence, FDSS; hits give low values; inhibition of EC80 agonist-evoked calcium signal | Q9GZU1; in the data active means activity change below about -50%; inconclusive means about -30% to -50%; inactive means above about -30%;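 note: stimulus is agonist 54-4 at its EC80 concentration; % is set by controls: 0 for no effect and ±100 for the full control effect; compound concentration not given in the record; the text of the record puts the active cut at -80%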
Target sequence (Q9GZU1 whole entry, looked up): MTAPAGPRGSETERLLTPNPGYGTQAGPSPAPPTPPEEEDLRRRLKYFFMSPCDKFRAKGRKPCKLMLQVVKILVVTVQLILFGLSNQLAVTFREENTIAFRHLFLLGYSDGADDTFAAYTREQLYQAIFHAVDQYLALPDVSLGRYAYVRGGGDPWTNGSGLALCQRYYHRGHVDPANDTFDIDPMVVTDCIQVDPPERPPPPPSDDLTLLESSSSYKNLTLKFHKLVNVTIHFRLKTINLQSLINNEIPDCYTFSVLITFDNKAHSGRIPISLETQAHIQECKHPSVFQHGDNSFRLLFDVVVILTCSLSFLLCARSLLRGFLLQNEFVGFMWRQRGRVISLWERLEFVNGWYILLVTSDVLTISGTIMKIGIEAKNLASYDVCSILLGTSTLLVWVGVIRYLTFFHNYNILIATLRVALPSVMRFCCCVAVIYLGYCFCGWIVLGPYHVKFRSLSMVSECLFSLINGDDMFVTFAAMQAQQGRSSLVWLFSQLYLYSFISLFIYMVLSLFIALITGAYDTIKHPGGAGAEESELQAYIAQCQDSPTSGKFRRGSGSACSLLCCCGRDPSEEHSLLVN
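Tet-induced TRPML1-DL cells loaded with Ca8 no-wash calcium dye were read kinetically on FDSS. Compound addition was followed by EC80 agonist 54-4 (4 uM final); inhibition was read over 110 s.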
* hit, by the source's call; u = inconclusive; x = not tested or not shown; & = joins results of further samples; [ ] = another dose, or the depositor's remark.

SMILES	Menin MLL FP FL	TRPV1 potentiator	gsp antag	ClpP mod	gsp ag	Sfp inh	TRPML1 blocker
CCOC(=O)c1ccc2c(c1)nc(SCC(=O)c1ccco1)n2CC	6.1	-29	22%	-4.3%	-1%	50µM*	5
C/C(Cc1ccccc1)=N/NC(=O)CNC(=O)C(c1ccccc1)c1ccccc1	3.1	8	5%	x	18%	-4%	2
O=C(CSc1ncnc2[nH]ncc12)Nc1nc(-c2ccc(F)c(F)c2)cs1	5.4	14	-9%	-2.0%	19%	12%	-1
COc1ccc(CCC(C)N2CCC(CO)(Cc3ccccc3)CC2)cc1 (stereo not given)	4.7	-3	10%	x	2%	1%	35
CCOC(=O)CSc1nc2cc(C)ccc2cc1C#N	6.5	-8	-5%	-20%	9%	-2%	17
CC(=O)c1cccc(NC(=O)COC(=O)C2=COCCO2)c1	-1.7	7	11%	x	-3%	10%	0
O=C(c1ccc(Cl)cc1)c1oc2ccccc2c1CS(=O)(=O)c1ccccc1	1.3	-9	-6%	0.0%	5%	-12%	16
COc1ccc2oc(C(=O)OCC(=O)NC3CCS(=O)(=O)C3)c(C)c2c1 (stereo not given)	x	x	x	3.8%	-22%	x	-12
CN(C)c1oc(-c2ccccc2Cl)nc1S(=O)(=O)c1ccccc1	-0.7	-1	-22%	-7.5%	-3%	-4%	23
COc1ccc(NCc2ccc3c(c2)OCO3)cc1Cl	-1.4	12	-4%	-6.3%	-56%	-14%	3

Exported with bars between the fields: part of the list above
mol | Menin MLL FP FL | TRPV1 potentiator | gsp antag | ClpP mod | gsp ag | Sfp inh | TRPML1 blocker
CCOC(=O)c1ccc2c(c1)nc(SCC(=O)c1ccco1)n2CC | 6.1 | -29 | 22% | -4.3% | -1% | 50µM* | 5
C/C(Cc1ccccc1)=N/NC(=O)CNC(=O)C(c1ccccc1)c1ccccc1 | 3.1 | 8 | 5% | x | 18% | -4% | 2
O=C(CSc1ncnc2[nH]ncc12)Nc1nc(-c2ccc(F)c(F)c2)cs1 | 5.4 | 14 | -9% | -2.0% | 19% | 12% | -1
COc1ccc(CCC(C)N2CCC(CO)(Cc3ccccc3)CC2)cc1 (stereo not given) | 4.7 | -3 | 10% | x | 2% | 1% | 35

More entries
SMILES	Menin MLL FP FL	TRPV1 potentiator	gsp antag	ClpP mod	gsp ag	Sfp inh	TRPML1 blocker
Cc1ccc(N2CC(C(=O)OCc3nc(N)nc(Nc4ccccc4C)n3)CC2=O)cc1 (stereo not given)	x	3	6%	x	77%[15.4 µM]	x	-18
COc1ccc(-c2nnc(SCC(=O)NCC3CCCO3)n2C)cc1 (stereo not given)	0.2	6	-5%	x	-16%	8%	11
CSc1ccc(CNc2nnnn2C)cc1	-1.0	-20	8%	-1.1%	27%	15%	9
Cc1ccc[n+](C2C(c3ccc([N+](=O)[O-])cc3)C(C#N)=C([S-])NC2(O)C2CC2)c1 (stereo not given)	1.4	-3	-3%	-1.1%	-25%	25µM*	-8
CSc1ccccc1NC(=O)CN(C)C(=O)Cn1c(=O)oc2ccccc21	x	15	2%	x	22%[15.4 µM]	x	2
CCN(CC)CCCCNc1ncc2cc(-c3cc(OC)cc(OC)c3)c(NC(=O)NC(C)(C)C)nc2n1	-5.5&-3.9	26	-4%	4.4%	x	6%&3%	-4
Cc1ccc(Oc2c(C(N)=O)cc([N+](=O)[O-])cc2[N+](=O)[O-])cc1	1.0	0	-11%	-1.8%	-9%	u	-21
COc1ccc(C2=C(O)C(C)N(c3ccccc3)C2=N)cc1OC (stereo not given)	-1.2	-6	-17%	0.8%	-9%	-12%	6
COc1ccc(CCCc2nnc(SCC(=O)Nc3nc(C)cs3)n2C)cc1	1.8	-3	-9%	0.1%	-8%	23%	12
CCC(COC)Oc1cc(NCc2ccccc2)c2ncn(C(C)C)c2c1 (stereo not given)	x	3	u	0.1%	0%	x	-6

Profiles as entered above. Screens in order: Menin MLL FP FL	TRPV1 potentiator	gsp antag	ClpP mod	gsp ag	Sfp inh	TRPML1 blocker
Profile of CCC(COC)Oc1cc(NCc2ccccc2)c2ncn(C(C)C)c2c1 (stereo not given) : x	3	u	0.1%	0%	x	-6
Profile of COc1ccc(-c2nnc(SCC(=O)NCC3CCCO3)n2C)cc1 (stereo not given) : 0.2	6	-5%	x	-16%	8%	11
Profile of Cc1ccc(Oc2c(C(N)=O)cc([N+](=O)[O-])cc2[N+](=O)[O-])cc1 : 1.0	0	-11%	-1.8%	-9%	u	-21

New compounds follow
SMILES	Menin MLL FP FL	TRPV1 potentiator	gsp antag	ClpP mod	gsp ag	Sfp inh	TRPML1 blocker
COc1ccc(N(CCCN2C(=O)c3cccc4cccc(c34)C2=O)C(=O)c2cccc(OC)c2)cc1	1.0	-2	0%	-2.4%	0%	2%	6
Cc1cc(C)nc(NS(=O)(=O)c2ccc(Br)s2)c1	u	2	-17%	-4.1%	25%	u	-3
CCCn1c(-c2ccc(OC)cc2)nc2nc3ccccc3nc21	-0.9	-14	4%	28µM*	u	5%	-9
COc1ccc(S(=O)(=O)N2Cc3ccccc3CC2C(=O)Nc2nccs2)cc1OC (stereo not given)	0.4	-8	-10%	-0.8%	22%	5%	-17
Cc1ccc(C)c(N2CCN(C(=S)Nc3ccc4nc(N5CCOCC5)cc(C)c4c3)CC2)c1	3.8	-46	-1%	x	-2%[15.4 µM]	-11%	17
COc1ccc(-c2ccc3ccccc3n2)cc1	-1.4	14	2%	x	2%[15.4 µM]	33%[activator]	-6
Cc1cc(C)c2c(N)c(C(=O)N3CCN(c4ncccn4)CC3)sc2n1	-1.3	u	3%	-28%	u	-17%	10
COc1cccc(CNC(=O)c2cccs2)c1	-2.3	19	-2%	x	1%[15.4 µM]	20%	-2
CCN(CC)CCNC(=O)c1ccc(NC(=O)c2cccc(S(=O)(=O)N3c4ccccc4CC3C)c2)cc1 (stereo not given)	x	u	2%	0.3%	u	u	14
COc1ccc(N)cc1-n1c(C)ccc1C	-18	-12	3%	-6.5%	-28%	-6%	u
Cn1nnnc1SCC(=O)N1c2ccccc2Sc2ccccc21	0.6	-4	u	-1.6%	-17%	-4%	4
Cc1ccc(NS(=O)(=O)c2cc(C(=O)NCCSC3CCCCC3)ccc2C)cc1	-0.7	-1	-17%	0.3%	4%	-3%	19
O=c1c2[nH]c3ccccc3c2ncn1CCN1CCNCC1	-0.8	-5	7%	u	-24%	-5%	-5
O=C1C2C3C=CC(C3)C2C(=O)N1/N=C/c1ccc(-c2ccccc2[N+](=O)[O-])o1 (stereo not given)	1.4	-9	7%	-2.9%	-29%[15.4 µM]	6%	0
CCNc1nc(NCC)nc(C(=O)NN)n1	-0.2	4	29%	0.4%	-17%	-8%	2
Cc1ccc(NS(=O)(=O)c2cn(C)cn2)cc1	-1.0	-6	-5%	-0.4%	-11%	4%	15
O=C(O)CCC(=O)OCC1CCCO1 (stereo not given)	1.9	5	8%	1.6%	7%	17%	3
COc1ccccc1NC(=O)NC1(C(=O)N2CCCCCC2)CCCCC1	1.1	-5	-6%	-2.5%	-31%[inhibitor]	20%	-5
O=C1CCCCCN1C(=O)c1cccc(C(=O)N2CCCCCC2=O)c1	4.4	-2	11%	3.9%	u	-1%	18
CC(C)C(NS(=O)(=O)c1ccc2c(c1)OCCCO2)C(=O)O (stereo not given)	4.2	8	4%	-3.7%	26%	18%	-9
COc1ccc(C)cc1-n1nnnc1SCC1CCCCO1 (stereo not given)	0.4	-19	-8%	-1.5%	-20%	1%	-3
CC(C)OC(=O)c1cc(NC(=O)C2C3CCC(O3)C2C(=O)O)cc(C(=O)OC(C)C)c1 (stereo not given)	8.2	-3	-7%	-5.8%	-3%	12%	8
CSc1ncc(C(C)=O)c(C)n1	-0.4	-8	9%	1.5%	-63%[inhibitor]	10%	-16
CC(C)CC1NC(=O)N(CC(=O)NC2CCCCC2)C1=O (stereo not given)	x	-7	15%	x	-2%[15.4 µM]	x	-12
COc1ccc(/C=C/C(=O)Nc2nc(C)cc(C)n2)cc1OC	2.0	10	-2%	35µM*	-11%	9%	-2
Cc1cc(C)c2nc(SC3CCOC3=O)cc(C)c2c1 (stereo not given)	-1.0	u	1%	x	10%[15.4 µM]	-19%	-12
CCCCC(=O)Nc1ccc(N2CCN(C(=O)CC)CC2)cc1	0.8	-1	-16%	0.4%	24%	12%	-2
O=C(Nc1ccccc1N1CCN(C(=O)c2ccc(Cl)cc2)CC1)c1ccc([N+](=O)[O-])o1	x	8	-24%	0.0%	18%	7%	68
O=C(NCc1ccco1)/C(=C\c1ccco1)NC(=O)c1ccco1	u	5	11%	1.8%	u	45µM*	-8
CC(=O)c1sc(NC(=O)c2ccc(F)cc2)nc1-c1ccccc1	0.7	-20	-15%	-19%	6%	-14%	-5
CCc1cc(Cn2nc(-c3ccccc3)cc2C(=O)NCc2ccc(C)cc2)on1	x	16	-7%	0.7%	x	x	-14
CC(C)n1nc(C(=O)Nc2nc3ccc(S(C)(=O)=O)cc3s2)c2ccccc2c1=O	3.1	-15	5%	-1.6%	-32%[inhibitor]	16%	9
CCCc1cc(=O)oc2cc(OCC(=O)NCCCn3ccnc3)c(Cl)cc12	-1.1	-3	-7%	3.9%	5%	10%	-19
CC(=NNc1nc2ccccc2o1)c1ncccn1	x	x	-2%	-0.4%	-11%	x	-3
CC(C)n1c(O)c(N=NC(=O)CNC(=O)Cc2ccc(Cl)cc2)c2ccccc21	-1.4	-25	-14%	1.3%	-12%	9%	22
Cc1ccc(-c2nn(CCC(=O)NN3CCOCC3)c(=O)c3ccccc23)cc1	-3.0	8	-7%	-0.4%	-24%	5%	23
CC(OC(=O)c1cnccn1)C(=O)c1ccccc1 (stereo not given)	x	12	8%	-1.0%	8%[15.4 µM]	x	-12
COc1ccc(CC(=O)Nc2cc(S(=O)(=O)N3CCOCC3)ccc2N2CCCC2)cc1	x	x	x	-1.5%	-2%	x	2
Cc1ccc(N2CCN(c3cc(C)nc4nc(C)nn34)CC2)c(C)c1	1.1	-22	1%	-2.0%	14%	0%	3

From PubChem
